# Screening data: PubChem BioAssay, National Center for Advancing Translational Sciences (NCATS)
# miR-21 FLuc – miR-21 reporter, rising signal; HeLa miR-21 FLuc reporter, luciferase, 48 h; Potency, µM (series often up to 38.3 µM), without a hit: at the highest dose reporter change, positive = more light; 340,000 tested, under 10 active; active = well fitted rising curve with a large enough effect; inconclusive = small, poorly fitted or top-dose-only effect; inactive = no such curve, though single readings can be large or run the other way;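 also: % of control where 0% means no effect; miR-21 action dims this reporter so a rising signal means less miR-21 action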
#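 Compounds were titrated across several concentrations (up to approximately 40 uM) and incubated 48 hours with HeLa miR-21-FLuc reporter cells (miR-21 target sequence downstream of FLuc, endogenous miR-21). Readout was firefly luciferase luminescence after lytic detection reagent.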
# Rango-impB inh – inhibitors of Rango-importin beta complex formation; actives 0.031% (n = 340,000); Rango CFP/YFP FRET sensor + importin beta, 45 min; Potency, µM (top dose mostly 92.2 µM), without a hit: at the highest dose inhibition of complex formation; AID 540263; Q14974; active = rising FRET ratio curve, often small or poorly fitted; inconclusive = mostly compound fluorescence or quenching in the first reads; inactive = flat curves in all reads;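 also: potency is read from the fitted curve at half-maximal effect; 0% = DMSO wells and 100% = buffer wells lacking importin beta; nearly all actives have a fitted effect of over 15% in size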
#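 Inhibition scored from the CFP 486 nm/YFP 530 nm FRET ratio 45 min after adding 0.125 microM importin beta to 50 nM Rango biosensor preincubated 5 min with compound (room temperature, PBS with DTT, Tween-20, BSA). No-importin wells as positive control.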
# Rango release inh – prevents RanGTP from dissociating the Rango-importin beta complex | AID 540253 | Potency, µM (top dose mostly 46.1 µM), for inactives: top-dose activity change, negative = inhibition | O95149+P62826 | Biochemical FRET Rango-importin beta, RanGTP-induced dissociation | actives 0.071% (n = 340,000); active means falling FRET ratio curve, often poorly fitted, with flat reads before Ran was added; inconclusive means other falling curves, or compound fluorescence or quenching; inactive means flat or rising ratio curve;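 also: potency is read from the fitted curve at half-maximal effect; % of control where 0% means no effect; nearly all actives have a fitted effect of over 45% in size; -100% = wells without RanGTP and RCC1; the record marks most hits as doubtful in a second field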
#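 FRET read at 45 min, room temperature: inhibitors block the CFP/YFP signal rise when RanGTP (0.6 uM Ran, 2 mM GTP, 0.2 uM RCC1) frees Rango (0.1 uM) from importin beta (0.25 uM). Pre-read after 5 min compound exposure flags interference.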
# GLA inh pH 4.5 – alpha-galactosidase A (human) inhibition, pH 4.5. 230,000 tested, under 10 active. P06280. AID 1467. purified enzyme, 4-MU-alpha-Gal fluorescence, pH 4.5. activity change, negative = inhibition, % at 105 µM; inconclusive = small, poorly fitted or top-dose-only inhibition, or a rising curve; inactive = flat fitted curve, though single readings scatter; no compound was filed as active;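 also: 0% = full activity with enzyme and -100% = basal without enzyme; dose as in the result columns while the protocol names 77 µM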
# Target sequence (P06280 whole entry, looked up): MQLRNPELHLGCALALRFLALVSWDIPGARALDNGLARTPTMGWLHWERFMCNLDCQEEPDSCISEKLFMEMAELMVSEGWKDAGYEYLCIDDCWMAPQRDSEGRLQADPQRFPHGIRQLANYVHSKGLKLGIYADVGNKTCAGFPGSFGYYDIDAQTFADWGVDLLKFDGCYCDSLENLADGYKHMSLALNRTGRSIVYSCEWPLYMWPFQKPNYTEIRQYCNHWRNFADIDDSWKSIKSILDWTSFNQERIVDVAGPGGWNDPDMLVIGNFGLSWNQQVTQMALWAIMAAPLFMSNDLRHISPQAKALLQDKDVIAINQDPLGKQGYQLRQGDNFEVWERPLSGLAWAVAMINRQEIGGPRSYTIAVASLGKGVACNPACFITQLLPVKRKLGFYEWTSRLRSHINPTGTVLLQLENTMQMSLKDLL
# * hit, by the source's call; ? = inconclusive; nt = not tested or not shown; [ ] = dose if it differs, or a comment. Not all compounds are listed; the hit share may differ from the screen's.
# Second line of a record – miR-21 FLuc	Rango-impB inh	Rango release inh	GLA inh pH 4.5
- Cc1ccc(OCC(=O)Nc2ccc(CN3CCCCC3)cc2)c(C)c1
  -3%	1.2%	0%	-3
- CCn1c(SCC(=O)Nc2cccc(NC(C)=O)c2)nc2c([nH]c3ccccc32)c1=O
  1%	-0.2%	0%	nt
- CCOC(=O)Cc1cnc(N)s1
  0%	-1.7%	5%	7
- COc1cc(Cl)c(CN2CCC(CCC(=O)NC3CC3)CC2)cc1OC
  1%	0.2%	-17%	nt
- O=C(Nc1ccccc1F)Nc1ccccc1Br
  -31%	?	-3%	3
- CC1=NCCN1CCNC(=O)Nc1ccc(C(C)(C)C)cc1
  -10%	5.5%	-9%	-3
- O=C(COc1cccc(C(F)(F)F)c1)NCC(c1ccco1)N1CCCCC1 (centres undefined)
  nt	2.5%	-13%	nt
- O=C(NCc1cccnc1)c1cc(S(=O)(=O)N2CCCCC2)ccc1Cl
  -6%	-5.5%	35%	-2
- Cc1cccc(CSCc2ccc(C(=O)NC3CCCC3)o2)c1
  -2%	-0.7%	-4%	4
- COc1ccccc1NS(=O)(=O)c1cccc(C(=O)NC2CCN(Cc3ccccc3)CC2)c1
  nt	-3.3%	4%	nt
- O=C(NCCc1ccncc1)Nc1ccccc1Cl
  0%	-3.6%	0%	-1
- COc1ccccc1CNc1ncnc2nc[nH]c12
  -5%	-1.0%	1%	7
- Cc1sc2ncn(Cc3ccccc3F)c(=O)c2c1C
  -7%	-2.4%	-18%	-13
- CCOC(=O)c1ccccc1NC(=S)N1CCN(C(=O)c2ccco2)CC1
  -9%	2.3%	16%	nt
- COc1cccc2cc(-c3ccccc3)oc12
  nt	-3.4%	-11%	nt
- O=C1Nc2ccc(NS(=O)(=O)c3cccs3)c3cccc1c23
  -25%	2.3%	-6%	3
- O=c1[nH]c(=S)[nH]c2nc(-c3ccccc3)cnc12
  nt	2.4%	-22%	nt
- O=C(NC(=S)Nc1ccc(N2CCOCC2)cc1)c1cccc(Cl)c1
  -31%	0.8%	-6%	-26
- Cc1nnc(SCC(=O)Nc2ccc(Oc3ccccc3)cc2)n1N
  -11%	4.0%	-3%	-4
- O=C(Cn1c2c(sc1=O)C1c3ccccc3OCC1CS2)Nc1ccc(Cl)cc1 (centres undefined)
  21%	-0.2%	24%	-6
- CN1CCN(CC(=O)n2c3c(c4ccccc42)CCCC3)CC1
  -11%	?	-19%	1
- Cc1noc(C)c1S(=O)(=O)Nc1ccccc1Oc1ccccc1
  1%	-0.5%	19%	?
- COc1ccc(NC(=O)CCS(=O)(=O)c2ccc3c(c2)oc(=O)n3C)cc1
  -1%	2.9%	-4%	nt
- O=C(Nc1ccccc1C(F)(F)F)c1cc(-c2ccccc2O)on1
  -58%	-3.8%	-15%	2
- CC(C)(O)C#Cc1ccc(CN2CCC(CO)(CCc3ccccc3)CC2)cc1
  11%	-4.2%	11%	nt
- O=C(Nc1ccc(N2CCN(C(=O)c3ccccc3F)CC2)cc1)c1ncn[nH]1
  -1%	2.5%	-18%	4
- COC(=O)c1c(O)cc(=O)n2c1CCCCC2
  4%	0.0%	0%	1
- Cc1ccccc1C(=O)OCCCN=C1NS(=O)(=O)c2ccccc21
  -7%	-0.4%	-5%	-24
- O=C(CCCn1c(=S)[nH]c2ccsc2c1=O)Nc1ccc2c(c1)OCO2
  -17%	3.9%	1%	-1
- Cc1sc(Nc2ccc([N+](=O)[O-])cc2)nc1-c1c(C)n(C)n(-c2ccccc2)c1=O
  -2%	?	2%	1

# (listing goes on)
# Second line of a record – miR-21 FLuc	Rango-impB inh	Rango release inh	GLA inh pH 4.5
- CC1=C(C(=O)Nc2ccccc2)C(c2ccncc2)C(C#N)=C(SCC(=O)Nc2ccccc2)N1 (centres undefined)
  6%	0.2%	10%	-4
- COc1ccc(S(=O)(=O)N2CCCC(C(=O)N3CCN(C)CC3)C2)cc1C (centres undefined)
  -1%	0.2%	1%	5
- O=C(Cc1ccc(Cl)cc1Cl)Nc1cccc(S(=O)(=O)Nc2ccccc2F)c1
  10%	-3.5%	12%	-4
- COc1ccc(OC)c(C(C)NC=O)c1 (centres undefined)
  -6%	1.7%	-11%	1
- Cc1cccc(N(C)C(=O)c2cnn(-c3ccccc3)c2C)c1
  -13%	-0.9%	-14%	nt
- Cc1cccc(NC(NC(=O)c2ccccc2[N+](=O)[O-])C(Cl)(Cl)Cl)c1 (centres undefined)
  -1%	3.6%	0%	-7
- Cc1cnn(C(=O)c2ccccc2Br)c1
  -5%	0.8%	0%	-11
- O=C(Nc1ccccc1O)c1cc2cc(Br)ccc2oc1=O
  -64%	-0.9%	25%	nt
- CC(=O)Nc1cccc(/C(C)=N/NC(=O)c2c(-c3ccccc3Cl)noc2C)c1
  14%	4.7%	20%	-1
- Cn1cc(-c2ccccc2C(=O)O)c(=O)c2cc(Cl)ccc21
  2%	-0.2%	1%	nt
- O=C(NS(=O)(=O)Nc1ccccn1)c1c[nH]c2ccccc12
  -5%	0.4%	1%	nt
- CC(=O)c1ccc(CC2SC(N)=NC2=O)cc1 (centres undefined)
  0%	0.6%	11%	nt
- NS(=O)(=O)c1ccc(CCNC(=O)c2cccc(S(=O)(=O)N3CCCC3)c2)cc1
  nt	-1.2%	0%	nt
- Cc1c(C(=O)O)oc2c1/C(=N\O)CCC2
  -5%	2.6%	19%	-1
- CC(=O)C[C@@H](O)CC(=O)[C@H]1OC(=O)CCCCCCCCc2ccccc21
  nt	-0.7%	3%	nt
- Cc1ccc(CN2CCN(Cc3cnc(N4CCOCC4)s3)CC2CCO)cc1 (centres undefined)
  -15%	-1.3%	-5%	6
- COc1cccc(NC(=O)COC(=O)CCSc2ccccc2)c1
  nt	-1.1%	14%	nt
- CCOC(=O)CC1COCCN1C(=O)c1cc(COc2ccc(F)c(F)c2)on1 (centres undefined)
  -33%	4.5%	2%	nt
- CC(NC(=O)c1ccc(N2CCNCC2)c([N+](=O)[O-])c1)C12CC3CC(CC(C3)C1)C2 (centres undefined)
  -6%	-0.4%	-11%	6
- O=S(=O)(NCCc1ccccc1)c1ccc(S(=O)(=O)N2CCCCC2)cc1
  -1%	-0.6%	0%	1
- Nc1c(C(=O)NCCN2CCOCC2)c2nc3ccccc3nc2n1-c1ccccc1
  19%	?	?	?
- O=C(Cc1cccs1)NNC(=S)NCc1ccc(Cl)cc1
  -11%	3.8%	2%	1
- CCOC(=O)C1CCN(c2ncnc3c2c(-c2ccccc2)cn3-c2ccccc2)CC1
  -1%	-1.8%	33%	-5[21.1 µM]
- COc1ccc(C2c3c(ncn(CCCO)c3=N)Oc3ccc4ccccc4c32)cc1OC (centres undefined)
  -21%	3.4%	-1%	-7
- O=C(Nc1ccc(N2CCN(C(=O)c3ccco3)CC2)cc1)c1cccnc1Cl
  -1%	2.7%	5%	-3
- CN1CCN(C(=O)/C(=C/c2cccnc2)NC(=O)c2cccc(Br)c2)CC1
  1%	-2.1%	-18%	nt
- Cc1[nH]c(=O)[nH]c(=O)c1S(=O)(=O)N1CCN(c2ccccc2)CC1
  -3%	-4.1%	6%	nt
- COc1ccccc1NC(=O)C(Cc1ccc(Cl)cc1)c1nn[nH]n1 (centres undefined)
  -2%	-1.4%	-6%	6
- c1ccc(SCCN2CCN(c3ccccc3)CC2)cc1
  -36%	-0.6%	2%	nt
- O=C(Nc1cccc2ccccc12)c1ccc([N+](=O)[O-])o1
  ?	-0.7%	2%	nt

# Following part.
# Second line of a record – miR-21 FLuc	Rango-impB inh	Rango release inh	GLA inh pH 4.5
- Cc1ccc(S(=O)(=O)N2CCN(c3nc(C)nc4sc5c(c34)CCC(C)C5)CC2)cc1 (centres undefined)
  0%	nt	nt	12
- CCO[C@@H]1OC(C(=O)O)=C[C@H](c2ccc3c(c2)OCO3)[C@H]1CCCO
  -2%	4.6%	-5%	-2
- Cc1cc(C)c(C#N)c(Nc2cccc(C)c2C)n1
  0%	-4.0%	18%	nt
- CCCCNC(=O)CSc1nc2cc(OC)c(OC)cc2c(=O)n1Cc1ccc(OC)cc1
  0%	-3.7%	-11%	8
- CCC(C(=O)Nc1ccccc1F)n1nc(C)c2c(C)n(-c3ccccc3)nc2c1=O (centres undefined)
  -3%	0.3%	-1%	nt
- Cc1nc2ccccn2c1C(=O)N/N=C/c1ccc([N+](=O)[O-])cc1
  0%	0.0%	-7%	2
- COc1ccc(-c2oc(NC(=O)c3ccc(C)cc3)c(C#N)c2-c2ccc(OC)cc2)cc1
  -18%	0.8%	-7%	-3
- O=C(Cn1c(NCCO)nc2ccccc21)c1cccs1
  -4%	0.2%	2%	4
- COc1ccc(NS(=O)(=O)c2cccc(C(=O)O)c2)cc1S(=O)(=O)N1CCOCC1
  nt	-2.3%	-4%	nt
- O=C(CSc1nc(C2CC2)nc2sc3c(c12)CCCC3)NCc1ccco1
  -12%	1.1%	2%	1
- Clc1ccc(-c2nc(Cc3ccccc3)no2)cc1
  -36%	-1.1%	46%	2
- O=C(Nc1ccc2c(c1)OCCO2)c1ccc(Cl)c(Cl)c1
  -30%	0.1%	11%	nt
- CC(C)CN1C(=O)C(=O)N(CC(=O)N2c3ccccc3NC(=O)CC2C)C1=O (centres undefined)
  nt	0.0%	-1%	nt
- CN1CCN(c2ccc(CNS(=O)(=O)c3ccc(F)cc3Cl)cc2)CC1
  -4%	3.1%	-12%	nt
- Cc1cc(C(=O)N2CCN(C(=O)c3ccco3)CC2)ccc1[N+](=O)[O-]
  -1%	1.6%	46%	3
- Cc1nn(CC(=O)NCCc2ccc(Cl)cc2)c(C)c1[N+](=O)[O-]
  -10%	-2.4%	-9%	-15
- NC1=NC[C@H](c2ccccc2)N1CCc1cccc(F)c1
  0%	-1.1%	2%	12
- CCCc1cc(=O)[nH]c(SCC(=O)Nc2cc3c(cc2C(C)=O)OCO3)n1
  -1%	1.8%	11%	-7
- O=C(CSc1nnc(SCc2ccccc2)s1)NNC(=S)Nc1ccccc1
  -2%	2.6%	-23%	8
- CCCCCNC(=O)C(C#N)c1nc2ccccc2nc1N1CCCC1 (centres undefined)
  0%	?	?	-8
- COc1cc(C(=O)N/C(=C\c2cn(C)c3ccccc23)C(=O)NCCCn2ccnc2)cc(OC)c1OC
  1%	-2.8%	-7%	nt
- COc1ccc2nc(N3CCCC(C(=O)NCCCN4CCN(C)CC4)C3)sc2c1 (centres undefined)
  -33%	0.5%	10%	-2
- Cc1cccc(Oc2ncccc2[N+](=O)[O-])c1C
  nt	2.5%	24%	nt
- N#Cc1c(Cn2cncn2)nc(=O)n(-c2ccccc2)c1N
  1%	1.3%	-2%	4
- C=CCn1c(SCc2ccc(OC)cc2)nnc1-c1cccnc1
  -4%	-1.1%	-5%	-1
- CC(=O)Nc1ccc(NC(=O)C(C)OC(=O)C(C)SCC(=O)Nc2ccc(C)cc2)cc1 (centres undefined)
  nt	-0.6%	-8%	nt
- CC(/C=N/NC(=O)c1ccc(CN2c3cccc4cccc(c34)S2(=O)=O)cc1)c1ccccc1 (centres undefined)
  -6%	0.7%	-14%	2
- O=C(Oc1ccccc1)c1ccc(-n2cnnn2)cc1
  -5%	-0.5%	0%	6
- CCn1c(C)nnc1SCC(=O)NC1CCCC1
  0%	-1.2%	2%	nt
- CCc1nc(SCC(=O)N2CCc3cc(OC)c(OC)cc3C2)c(C#N)cc1C
  nt	-6.2%	-1%	nt

# Continued.
# Second line of a record – miR-21 FLuc	Rango-impB inh	Rango release inh	GLA inh pH 4.5
- Cc1cc(NC(=O)CCC(=O)N(CCC(C)C)CC(=O)NCC2CCCO2)no1 (centres undefined)
  -2%	-1.2%	-13%	1
- CCOc1ccccc1-c1n[nH]c(=S)o1
  1%	?	-10%	6
- COc1ccccc1OCC(=O)NCCCn1ccnc1
  -2%	4.7%	-20%	2
- CCN(CC)C(=O)CN(c1cccc([N+](=O)[O-])c1)S(=O)(=O)c1ccccc1
  -3%	2.6%	-1%	4
- Cc1ccc2c(c1C)OC(=O)CC2(C)C
  4%	-3.7%	0%	0
- Cc1ccc(C(=O)N2CCN(S(=O)(=O)N3CCOCC3)CC2)cc1
  2%	2.5%	2%	10
